Sfp PPTase inh: qHTS Assay for Inhibitors of Bacillus subtilis Sfp phosphopantetheinyl transferase (PPTase). 4'-phosphopantetheinyl transferase ffp (Bacillus subtilis), Q9F4F7. Potency, µM, inactives show max response, negative = inhibition, hits mostly inhibitors. 310,000 compounds, 3.5% hits. Biochemical Sfp PPTase activity, qHTS; active = well fitted inhibition curve with a large enough effect; inconclusive = small, poorly fitted or top-dose-only effect, or another doubt; inactive = no such curve, though single readings can be large or run the other way;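 also: the enzyme is Sfp with the accession as filed and its product quenches rhodamine fluorescence; potency is read from the fitted curve at half-maximal effect; 0% = enzyme reaction without inhibitor and -100% = no enzyme wells; top concentration of the series not given in the record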
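Fluorescence-quenching assay with 15 nM Sfp, 5 uM rhodamine-CoA and 12.5 uM BHQ-2-labelled ybbR peptide in pH 7.6 Hepes/MgCl2 buffer. Enzyme was pre-incubated with compound for 15 min at room temperature. Rate was taken from the 30-min fluorescence change (525/598 nm).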
Six1-Eya2 blk: qHTS Assay for Inhibitors of the Six1/Eya2 Interaction; 360,000 compounds, 0.56% hits; activity change, % (concentration not given with the values); AlphaScreen GST-Six1/His-Eya2 binding, biochemical; active compounds read low; control for the full effect not named in the record; Homeobox protein SIX1 (Homo sapiens) + Protein phosphatase EYA2 (Homo sapiens), …; in the data active = activity change below about -65%; inconclusive = about -30% to -65%; inactive = above about -30%; also: % is scaled to controls: 0 for no effect and ±100 for the full control effect
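Six1/Eya2 binding was read as AlphaScreen signal after compounds were pinned into GST-Six1 plus His-tagged Eya2 (5X stock 250/500 nM) in pH 8.0 Tris/NaCl/TCEP buffer, beads added, then incubated 1 h, 37 C, dark.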
D2 agonist: Beta-Arrestin HTS for Positive Allosteric Modulators of the Human D2 Dopamine Receptor: Agonists. D(2) dopamine receptor (Homo sapiens), P14416. DiscoveRx PathHunter D2 beta-arrestin, luminescence, 90 min; 100% = 57 uM dopamine signal. activation, % (concentration not given with the values). 360,000 compounds, 0.084% hits. AID 624465, 2012; in the data active = activation above about 40%; inconclusive = about 15% to 40%; inactive = below about 15%; also: the text of the record calls up to 30% inactive
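DiscoveRx PathHunter D2 beta-arrestin cells (2,100/well) attached overnight, then compound-stimulated 90 min at 37 C in HBSS/10 mM HEPES/0.1% Tween-20 buffer; beta-galactosidase complementation read by luminescence after 1 h at ambient temperature. Dopamine 57 uM final (EC100) as control.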
PINK1 expr mod: A Quantitative High throughput Screen to Identify Chemical Modulators of PINK1 Expression | PINK1 immunofluorescence, high-content cytometry, 24 h | Potency, µM (highest dose often 76.6 µM), without a hit: top-dose activation (PINK1 increase), hits mostly activators | 410,000 compounds, 0.2% hits | AID 624263, 2012; active = well fitted activation curve with a large enough effect; inconclusive = small, poorly fitted or top-dose-only effect; inactive = flat fitted curve, though single readings scatter; cell line not stated here;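 also: potency is read from the fitted curve at half-maximal effect; % of control where 0% means no effect; nearly all actives have a fitted effect of over 65% in size; a mitochondrial uncoupler was the plate control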
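Readout is PINK1 immunofluorescence, quantified alongside mitochondrial, cell and nuclear markers by laser-scanning microplate cytometry. Cells from a stable line were exposed to compound titrations (5 concentrations) for 24 hours, with CCCP controls.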
TRPV1 PAM: HTS Assay for Compounds that Act as Potentiators of the Vanilloid Receptor 1; TRPV1-expressing cells, Fluo-8 calcium influx, capsaicin EC20 potentiation; host cell line not named in the record; control for the full effect not named in the record; potentiation, % at 8.33 µM; 320,000 compounds, 0.02% hits; AID 540277, 2011; active means potentiation above 80%; inconclusive means 30% to 80%; inactive means below 30%; also: 0% is about no effect
Target sequence (Q8NER1 whole entry, looked up): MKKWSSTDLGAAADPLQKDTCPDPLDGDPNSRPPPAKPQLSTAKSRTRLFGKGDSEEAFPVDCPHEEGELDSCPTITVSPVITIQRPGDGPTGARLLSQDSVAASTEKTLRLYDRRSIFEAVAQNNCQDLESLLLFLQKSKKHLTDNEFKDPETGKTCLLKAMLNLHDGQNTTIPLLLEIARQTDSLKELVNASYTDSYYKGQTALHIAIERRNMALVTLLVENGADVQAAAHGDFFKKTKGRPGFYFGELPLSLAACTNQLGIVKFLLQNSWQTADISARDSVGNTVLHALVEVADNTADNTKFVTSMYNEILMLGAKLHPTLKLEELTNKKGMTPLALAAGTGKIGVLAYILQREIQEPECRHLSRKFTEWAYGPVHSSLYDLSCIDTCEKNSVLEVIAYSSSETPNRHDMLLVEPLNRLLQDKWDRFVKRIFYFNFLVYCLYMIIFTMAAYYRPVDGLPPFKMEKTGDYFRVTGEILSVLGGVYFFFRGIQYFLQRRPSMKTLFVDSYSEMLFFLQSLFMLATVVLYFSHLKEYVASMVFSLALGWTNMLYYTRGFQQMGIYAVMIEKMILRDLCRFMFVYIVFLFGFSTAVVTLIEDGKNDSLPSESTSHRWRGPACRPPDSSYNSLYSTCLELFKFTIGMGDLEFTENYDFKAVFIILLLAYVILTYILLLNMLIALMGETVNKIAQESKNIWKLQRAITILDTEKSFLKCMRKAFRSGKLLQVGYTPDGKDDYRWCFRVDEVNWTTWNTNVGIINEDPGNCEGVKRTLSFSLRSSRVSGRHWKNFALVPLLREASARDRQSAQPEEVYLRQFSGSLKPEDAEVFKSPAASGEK
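TRPV1-expressing cells were cultured overnight at 35.5C and loaded with Fluo-8 calcium dye for 40 to 90 min at room temperature. After a 10 s baseline, compound was added and calcium influx was read kinetically for 3 min (ex 480/em 520 nm).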
D2 potentiator: Beta-Arrestin HTS for Positive Allosteric Modulators of the Human D2 Dopamine Receptor: Potentiators; DiscoveRx D2 beta-arrestin cells, luminescence, 90 min; 100% = 57 uM dopamine signal; 360,000 compounds, 0.23% hits; potentiation, % (no concentration beside the values); D(2) dopamine receptor (Homo sapiens), P14416; active = potentiation of 50% or more; inconclusive = 30% to 50%; inactive = 30% or less;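 also: compound concentration not given in the record; tested on top of an EC20 dose of dopamine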
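D2 cells co-treated with compound plus 50 nM dopamine (EC20) for 90 min at 37 deg C to detect potentiation. Beta-arrestin recruitment was read as enzyme-fragment luminescence after 1 h at ambient temperature. Full response was set by 57 uM dopamine.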
CtBP-E1A blk: qHTS Assay for Inhibitors of the CtBP/E1A Interaction; CtBP / adenovirus E1A interaction (AlphaScreen); AlphaScreen GST-E1A/His-CtBP binding, 1536-well; active compounds read low; control for the full effect not named in the record; activity change, % (no concentration beside the values); 340,000 compounds, 0.49% hits; AID 651724, 2012; in the data active means activity change below about -65%; inconclusive means about -30% to -65%; inactive means above about -30%; also: % is scaled to controls: 0 for no effect and ±100 for the full control effect
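GST-E1A and His-tagged CtBP (125 nM each as 5X stock) were preincubated with pin-transferred compound for 2 h at 37 °C in the dark, then glutathione donor and nickel acceptor beads were added for 1 h before AlphaScreen reading.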
An asterisk follows results filed as active; ? = inconclusive; nt = no result given; & = joins results of further samples; [ ] = dose if it differs, or a comment. Random draw from the library, and some 3.7% of all compounds hit somewhere here.

SMILES | Sfp PPTase inh | Six1-Eya2 blk | D2 agonist | PINK1 expr mod | TRPV1 PAM | D2 potentiator | CtBP-E1A blk
CCOc1ccc(S(=O)(=O)N2CCC(C(=O)NCC3CCCO3)CC2)cc1Cl (stereo unspecified) | -4% | -5 | -2.6 | -3.1% | 4 | -3 | -10
CN(CCCNC(=O)c1ccc(/C=N/O)nc1)CCCN(C)Cc1ccccc1 | -12% | ? | 0.8 | 1.1% | 2 | 8 | ?
Cc1ccc(C(=O)NCCNC(=O)CN2CCOCC2)cc1 | 20% | 6 | -0.8 | 0.5% | -24 | -8 | 5
Cc1ccc(-n2nc3ccc(NC(=O)/C=C/c4ccco4)cc3n2)cc1C | -31% | -7 | -1.9 | 8.1%[38.3 µM] | 28 | 6 | -4
Cc1c(Cl)cccc1NC(=S)N=Nc1c(O)n(CN2CCOCC2)c2ccccc12 | 0% | -24 | -4.5 | 1.3% | 4 | -6 | -18
CC(C)COC(=O)C(N)C(C(=O)OCC(C)C)c1ccccc1 (stereo unspecified) | 13% | 11 | 0.9 | 0.2% | -18 | 1 | 14
Cc1ccc(S(=O)(=O)c2nc(S(C)(=O)=O)sc2NCC2CCCO2)cc1 (stereo unspecified) | 0% | -1 | -5.6 | 1.9% | -5 | -15 | 0
CC(=O)c1ccc[n+](CC(=O)NC(C)c2ccccc2)c1 (stereo unspecified) | 6% | 8 | -0.7 | 0.9% | 4 | -2 | -1
Cc1ccc(NC(=O)C2CCCN2C(=O)OCc2ccccc2)c(O)c1 (stereo unspecified) | 24% | -2 | -9.3 | 3.2% | 0 | -10 | 1
O=C(NNc1ncc(C(F)(F)F)cc1Cl)c1c(Cl)cccc1Cl | 21% | 0 | -9.0 | 17% | -2 | -23 | 1
COC(=O)C1=C(NC(=O)c2ccc(Br)cc2)CCS1 | -26% | 0 | -0.1 | 5.0% | -9 | -1 | 7
CCc1cccc(C)c1NC(=O)Nc1ccc2c(c1)OCO2 | 6% | 3 | -2.4 | -2.0% | 3 | -13 | 5
Cc1ccc(C)c(NC(=O)CCC(=O)NN=C2CCCC2)c1 | -1% | 2 | -2.3 | -0.5% | -14 | 1 | 5
Cc1cc(NC(=O)CN2C(=O)C3CC=CCC3C2=O)no1 (stereo unspecified) | 14% | 1 | -1.1 | -0.7% | 13 | -1 | 6
COC(=O)c1cc2c(ccn2C)n1C | 6% | -10 | -3.9 | 2.9% | 12 | -7 | -12
CCCCCSc1nnc(N)s1 | 1% | 7 | 2.1 | -0.3% | -8 | 2 | nt
COCc1cc(C)nc2sc(C(=O)NCCO)c(-n3cccc3)c12 | 14% | -1 | -0.4 | 0.1% | 0 | -1 | 3
Cn1c(SCC(=O)NC2CCCCC2)nnc1-c1cc2cc(Cl)ccc2o1 | 10% | -7 | -2.6 | 8.2% | -3 | 1 | 5
COc1cccc(/C=N/NC(=O)c2cnccn2)c1 | -12% | 8 | -0.9 | -1.1% | -24 | -7 | -5
CNC(=O)c1sccc1-n1cccc1 | -2% | 0 | -1.0 | 1.1% | -9 | -19 | -5
O=C(CN(CCc1ccccc1)C(=O)CNS(=O)(=O)c1ccc(F)cc1)NCC1CCCO1 (stereo unspecified) | 13% | 6 | 0.5 | 0.3% | -1 | -5 | 12
Oc1c(N=NC(=S)Nc2ccccc2F)c2ccccc2n1Cc1ccccc1F | 2% | ? | 5.3 | 0.7% | 6 | 5 | ?
O=C(Nc1ccc(F)cc1)N1CCCCCC1 | 21% | -1 | 0.7 | -0.4% | -10 | -6 | 5
COc1cccc(-c2nn(C)c3sc(C(=O)NCc4ccc5c(c4)OCO5)cc23)c1 | 25% | -29 | -0.8 | 3.2% | nt | -10 | -19
CN1CCN(/N=C/c2ccc(C#N)cc2)CC1 | 13% | 14 | -4.3 | 2.5% | -17 | -5 | 11
Oc1ccc(Cc2ccc(Cl)cc2)c(O)c1 | 13% | -2 | 0.1 | 3.7% | -19 | 3 | -7
Nc1nnnn1CC(=O)N/N=C/c1cccs1 | 8% | -1 | -5.3 | 0.2% | 8 | -1 | nt
CCCCN(CCCC)C(=O)/C=C/c1cccc([N+](=O)[O-])c1 | -3% | -10 | 0.2 | 1.6% | -29 | -8 | -5
CC(=O)C(C)n1c(CN2CCN(C(=O)c3ccco3)CC2)nc2c1c(=O)n(C)c(=O)n2C (stereo unspecified) | 8% | 3 | -1.7 | 2.8% | -9 | 2 | 0
O=C(COc1ccc(C(=S)N2CCCC2)cc1)Nc1ccccc1C(F)(F)F | -19% | 8 | 5.8 | 5.1% | 6 | -8 | -22

An excerpt from above in order of their number in Six1-Eya2 blk, high to low:
SMILES | Six1-Eya2 blk
COc1cccc(/C=N/NC(=O)c2cnccn2)c1 | 8
CC(=O)C(C)n1c(CN2CCN(C(=O)c3ccco3)CC2)nc2c1c(=O)n(C)c(=O)n2C (stereo unspecified) | 3
COCc1cc(C)nc2sc(C(=O)NCCO)c(-n3cccc3)c12 | -1

The list goes on:
SMILES | Sfp PPTase inh | Six1-Eya2 blk | D2 agonist | PINK1 expr mod | TRPV1 PAM | D2 potentiator | CtBP-E1A blk
O=[N+]([O-])c1cc([N+](=O)[O-])c(Oc2c(F)cc(F)cc2F)cc1NN1CCCCC1 | -25% | -17 | -3.3 | 0.2% | 4 | -6 | -19
O=C(COC(=O)C1CC2C=CC1C2)Nc1cccc(S(=O)(=O)N2CCOCC2)c1 (stereo unspecified) | 9% | 11 | 0.0 | 2.7% | -3 | 2 | 0
COc1ccc(-n2c(=O)[nH]c3c(C(N)=O)nc(C4CCCCC4)nc32)cc1 | 21% | 0 | -1.9 | 1.3% | -1 | -10 | nt
Cn1ncc2c(Nc3ccc(O)cc3)nc(Cl)nc21 | 12% | -16 | -3.4 | 0.8% | -16 | -6 | -15
N#CCC(=O)Nc1ccc(C(=O)OCC(=O)NCCCc2ccccc2)cc1 | 16% | -6 | 3.1 | -0.1% | 4 | 0 | nt
Cc1cccc(C)c1NC(=O)C(c1ccc([N+](=O)[O-])cc1)N1CCCCC1 (stereo unspecified) | 5% | 1 | -2.9 | 0.5% | -26 | -5 | 4
CC1=C(C(=O)OCC2CCCO2)C(c2ccc(O)cc2)NC(=O)N1 (stereo unspecified) | 10% | 1 | -1.2 | 1.3%[38.3 µM] | 0 | 5 | 6
N#CC1=C(N)C(C#N)(C#N)[C@H](c2c(F)cccc2F)[C@H]2CC3(CC=C12)OCCO3 | -9% | -14 | -3.0 | 7.4%[38.3 µM] | 3 | -3 | -7
CC1=C(C(=O)Nc2cccnc2)C(c2ccc(C(C)C)cc2)n2ncnc2N1 (stereo unspecified) | 13% | 1 | 2.4 | 3.1% | 3 | -1 | 5
OC(c1cccc(Cl)c1)c1ncc(-c2ccc(C(F)(F)F)cc2)[nH]1 (stereo unspecified) | nt | -8 | 6.4 | 15% | nt | 0 | -17
CS(=O)(=O)N1CCc2cc(C(=O)Nc3ccc(COCC(F)(F)F)cc3)ccc21 | 10% | 2 | -3.8 | 4.0% | 3 | -1 | 8
CCOC(=O)N1CCN(S(=O)(=O)N2CCCC(C(=O)NCCc3ccc(Cl)cc3)C2)CC1 (stereo unspecified) | 14% | 1 | 2.5 | 1.5% | -8 | -30 | 7
C#CCn1c(C)cc(C)c(S(=O)(=O)c2ccccc2)c1=O | 5% | 3 | 2.5 | 0.8% | 11 | 0 | 5
O=C(O)CCC(=O)NN1C(=O)c2ccccc2NC1c1ccco1 (stereo unspecified) | -6% | 2 | 1.9 | -0.2% | -3 | 1 | 10
C=CCOC(=O)C1=C(C)Nc2ncnn2C1c1cc(Br)ccc1F (stereo unspecified) | 5% | -1 | -0.2 | 6.4%[38.3 µM] | -10 | -5 | 0
CCN(C(=O)CSc1nc2ccc(C)cc2[nH]1)C1CCS(=O)(=O)C1 (stereo unspecified) | nt | 1 | 0.2 | 1.7% | nt | -2 | 0
Cc1nc(N2CCN(c3ccccc3)CC2)nc2c1C(=O)CC(C)C2 (stereo unspecified) | -11% | 1 | 1.6 | 4.1% | 3 | 4 | 1
O=C(CSc1ccc2nnc(-c3ccccn3)n2n1)Nc1ccccc1C(F)(F)F | -4% | ? | 4.7 | -0.4% | 3 | -21 | -2
O=C(NC1CC1)C1=C[C@@H](c2csc3ccccc23)C[C@@H](OCCCCO)O1 | 13% | -3 | 0.1 | 2.2% | 9 | 0 | 2
COc1ccc2c(c1)c(=O)oc1c(C)c(OC(C)C(=O)NCC3CCC(C(=O)O)CC3)ccc12 (stereo unspecified) | 17% | -5 | 5.7 | -0.6% | -7 | 1 | -1
CCCCC(=O)Nc1ccc(C(=O)NCC(=O)OC)cc1 | -4% | -1 | -1.6 | 8.1%[38.3 µM] | -3 | 2 | 0
Oc1ccc2sc(-c3ccccc3O)c(-c3ccc(OCCN4CCCCC4)cc3)c2c1 | nt | -4 | nt | 4.2% | nt | nt | 2
Cc1cccc(CS(=O)(=O)Cc2ccc(C(=O)NCc3ccccc3)o2)c1 | 3% | 0 | 1.9 | -1.6%&-0.1% | 3 | -7 | nt
CC(C)c1cccc(C2=CC(=O)C[C@H](c3ccc(F)cc3)C2)c1 | nt | 2 | -2.0 | 19% | -8 | -13 | nt
O=C(COC(=O)CCc1c[nH]c2ccccc12)Nc1ccccc1 | nt | 3 | 1.5 | -0.5% | 0 | -18 | -3
O=C1CN(Cc2ccccc2)CC(=O)N1 | nt | -1 | -1.7 | ? | nt | -1 | 8
CC(=O)Nc1ccc(NC(=O)CN(c2ccccc2Cl)S(C)(=O)=O)cc1 | -11% | 1 | -0.6 | 3.1%[38.3 µM] | 4 | 1 | 4
COc1ccc(C2=NS(=O)(=O)N(C)C(C(=O)NCc3ccccn3)=C2)cc1 | 7% | -11 | -2.2 | -0.8% | ? | -1 | 2
